RecA intein inh: inhibitors of M. tuberculosis RecA intein splicing; P9WHJ3; cell-free RecA intein splicing, fluorescence; inhibition, %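 (about 9 µM by stock and volumes)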; 290,000 tested, 0.75% active; AID 2221; in the data active means inhibition above about 30%; inconclusive means no clear call, values can overlap the other calls;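 further: 0% = vehicle wells and 100% = reference inhibitor control wells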
Target sequence (P9WHJ3 whole entry, looked up): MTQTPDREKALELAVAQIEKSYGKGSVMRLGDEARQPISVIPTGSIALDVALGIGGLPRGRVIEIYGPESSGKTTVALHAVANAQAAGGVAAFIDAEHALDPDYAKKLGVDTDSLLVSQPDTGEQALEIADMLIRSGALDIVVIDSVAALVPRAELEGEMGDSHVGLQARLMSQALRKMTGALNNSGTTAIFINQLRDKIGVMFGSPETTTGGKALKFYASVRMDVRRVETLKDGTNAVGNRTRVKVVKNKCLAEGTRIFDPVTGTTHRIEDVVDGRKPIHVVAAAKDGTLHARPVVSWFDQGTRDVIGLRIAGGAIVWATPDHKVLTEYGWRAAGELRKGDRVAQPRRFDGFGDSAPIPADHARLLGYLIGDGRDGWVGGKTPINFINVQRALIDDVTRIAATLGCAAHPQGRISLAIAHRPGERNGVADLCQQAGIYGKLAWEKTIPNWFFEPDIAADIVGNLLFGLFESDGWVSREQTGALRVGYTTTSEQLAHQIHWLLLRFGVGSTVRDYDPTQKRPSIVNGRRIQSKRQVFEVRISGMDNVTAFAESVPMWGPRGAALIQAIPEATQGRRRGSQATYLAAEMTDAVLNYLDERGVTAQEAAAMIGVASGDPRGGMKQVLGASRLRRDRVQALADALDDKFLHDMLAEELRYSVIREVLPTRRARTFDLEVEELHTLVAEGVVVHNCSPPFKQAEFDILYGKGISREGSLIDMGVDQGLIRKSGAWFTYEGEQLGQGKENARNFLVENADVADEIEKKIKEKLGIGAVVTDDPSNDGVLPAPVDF
Mtb bLac sens: beta-lactam sensitization of Mtb H37Rv; M. tuberculosis H37Rv growth with meropenem, percent inhibition; hits of this screen are not shown here; inhibition, % at 25 µM; 330,000 tested, 0.27% active; AID 434955;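 active means about 74% or more and at least 40 points above the plate without the antibiotic, then above 30% in a dose series; inconclusive means first-round hits that could not be retested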;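 further: growth measured after seven days incubation then overnight dye step; 0% = bacteria only wells and 100% = bacteria with antibiotic; twin plates without the antibiotic show which effects depend on it; some results filed as inactive read as strong as hits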
Mtb growth: M. tuberculosis H37Rv growth inhibitors, H37Rv strain (AID 1626). M. tuberculosis H37Rv growth inhibition; higher % means a stronger effect. one-dose inhibition, % at 10 µM; IC50 in µM for titrated hits. 220,000 tested, 0.95% active;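 active means confirmed in a dose series; inconclusive means inhibition above 80% but not taken into the dose series; inactive means below 80% or under 30% at every dose of the series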;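 further: bacteria incubated seven days before Alamar blue readout; 0% = bacteria only wells and 100% = bacteria with antibiotic wells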
Arbovirus inh: arbovirus infection inhibition. 200,000 tested, 0.37% active. arbovirus infection cell-based antiviral screen. inhibition, % at 10 µM. AID 1251;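 active means inhibition from about 30%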;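 further: bluetongue infection of BSR cells; cell survival read as ATP light after 72 h; 0% = infected wells without compound and 100% = uninfected wells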
YopH PTP inh: inhibitors of Yersinia enterocolitica YopH tyrosine phosphatase; fluorescence Ex485/Em525; inhibition, %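 (about 10 µM by stock and volumes)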; 140,000 tested, 0.16% active; AID 898;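 active means inhibition of 50% or more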;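 further: controls were vehicle for no effect and minimum signal wells for full effect; inactives centre near -20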
Arbovirus inh repeat: second read-out of Arbovirus inh, no call of its own (marks repeat the call); inhibition, %; measured here: 10K subset replicate screen; many hits read low in the repeat;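 first of two repeat runs on a subset; 0% = infected and 100% = uninfected wells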
* = called active by the depositor; ? = inconclusive; . = no result given.

SMILES | RecA intein inh | Mtb bLac sens | Mtb growth | Arbovirus inh | YopH PTP inh | others
CC(C)CCNC(=O)c1c[nH]c2ccc(S(=O)(=O)N3CCOCC3)cc2c1=O | 1.2 | 6 | . | . | .
O=C(COc1ccccc1Cl)Nc1ccc(CN2CCCCC2)cc1 | -0.6 | 5 | 9% | -2 | .
O=C(NC1CC2CCC(C1)N2C(=O)NC1CCCCC1)NC12CC3CC(CC(C3)C1)C2 (configuration not stated) | -1.2 | -2 | -2% | 9 | -34
Brc1ccc(Nc2nc(-c3cccnc3)cs2)cc1 | -3.7 | 11 | 12% | 6 | .
COc1cccc(NC(=O)Cn2nnc(C(=O)NCc3ccc4c(c3)OCO4)c2N)c1 | -3.0 | -1 | . | . | .
Nc1nc(NCC2CCCO2)nc(Nc2ccc(Cl)cc2)c1[N+](=O)[O-] (configuration not stated) | 7.8 | -6 | -1% | . | .
O=C(COc1ccc(-c2nnco2)cc1)NC1CCCc2ccccc21 (configuration not stated) | 0.6 | 42 | -1% | 1 | -18
CCOCCCNC(=O)c1ccc(CS(=O)(=O)Cc2ccc(C)cc2)o1 | -2.4 | 5 | -11% | 1 | -1
NC(=O)c1ccc(N2CCN(S(=O)(=O)c3ccccc3)CC2)c([N+](=O)[O-])c1 | 0.2 | 2 | -3% | 23 | .
CC(=O)NC1=C(Nc2ccc(N(C)C)cc2)C(=O)c2ccccc2C1=O | 76* | 10 | . | . | .
COc1ccccc1NC1=C(NC(C)=O)C(=O)c2ccccc2C1=O | . | . | -2% | -9 | .
CCN(CC)S(=O)(=O)c1cccc(C(=O)Nc2nncs2)c1 | -2.8 | 7 | -10% | 3 | -46
Cc1ccc(S(=O)(=O)N(C)C)cc1NC(=O)COc1ccc(-c2nnco2)cc1 | 0.3 | 3 | 6% | . | .
O=C(Cc1c[nH]c2ccccc12)N/N=C/c1cccc(F)c1 | -0.3 | 3 | 4% | -6 | -17
COc1ccccc1N1CCN(C(=O)CSc2ncnc3c2cnn3-c2ccc(C)c(C)c2)CC1 | -1.7 | 61 | 80% | . | .
CCOc1ccc(Oc2cc(N)cc([N+](=O)[O-])c2)cc1 | -0.8 | 0 | 2% | -5 | .
CCCCCCSC1=C(C#N)C(c2ccc(C)o2)CC(=O)N1 (configuration not stated) | -1.8 | 1 | 3% | -6 | -22
CSc1ccccc1C(=O)NCC(c1ccco1)N(C)C (configuration not stated) | -4.4 | -5 | . | . | .
Cc1ccc(O)c(NC(=O)c2onc(C)c2Cl)c1 | -6.4 | 8 | . | . | .
C=CCc1c(C)nc2c(C)cccc2c1SC(=N)N | 3.4 | 0 | -2% | . | .

Some of these compounds in order of count of non-hydrogen atoms, largest number first.
SMILES | RecA intein inh | Mtb bLac sens | Mtb growth | Arbovirus inh | YopH PTP inh | others
O=C(NC1CC2CCC(C1)N2C(=O)NC1CCCCC1)NC12CC3CC(CC(C3)C1)C2 (configuration not stated) | -1.2 | -2 | -2% | 9 | -34
CCOCCCNC(=O)c1ccc(CS(=O)(=O)Cc2ccc(C)cc2)o1 | -2.4 | 5 | -11% | 1 | -1
O=C(Cc1c[nH]c2ccccc12)N/N=C/c1cccc(F)c1 | -0.3 | 3 | 4% | -6 | -17

Continued:
SMILES | RecA intein inh | Mtb bLac sens | Mtb growth | Arbovirus inh | YopH PTP inh | others
N=c1n(CCN2CCCC2)c2ccccc2n1CC(O)c1ccc(Cl)c(Cl)c1 (configuration not stated) | 0.8 | 22 | 1% | -35 | .
COc1ccc(CCNC(=O)C/C(C)=N/NC(=O)c2cnccn2)cc1 | 0.9 | -3 | . | . | .
CC(=O)N1C(=O)N(C)C2C1N(C(C)=O)C(=O)N2C (configuration not stated) | -0.1 | 1 | -24% | -5 | 9
O=C(COC(=O)c1ccccn1)Nc1cc(Cl)ccc1Cl | 1.7 | -1 | 1% | -1 | -19
COc1cc2c(cc1OC)CN(CC(O)c1ccccc1)CC2 (configuration not stated) | -100 | -1 | . | . | .
CN(C)/C=C/C(=O)c1nnn(C2CCCCC2)c1NC1CCCCC1 | -0.7 | 2 | 2% | 20 | -47
COC(=O)CN1C(=S)N(c2ccccc2)C(=O)C1CC(=O)Nc1ccc(Cl)cc1 (configuration not stated) | 1.9 | 2 | -6% | -10 | -19
C=CCn1c(COc2ccc(Cl)cc2)nnc1SCC(=O)c1c(N)n(C)c(=O)n(C)c1=O | -0.4 | 1 | -3% | -4 | .
O=[N+]([O-])c1cc(CN2CCCCCC2)ccc1O | 2.0 | 3 | . | . | .
O=C1c2ccccc2CN2C(=O)c3ccccc3CN12 | 0.4 | -10 | . | . | .
CC(=O)Nc1ccc(C(=O)OCC(=O)c2cccc([N+](=O)[O-])c2)cc1 | -1.4 | 4 | -15% | 0 | -18
Cn1c(SCC(=O)Nc2ccc(N3CCOCC3)cc2)nnc1-c1ccccc1 | -0.1 | 72 | -8% | 6 | 13
O=C(NC1CCN(C(=S)Nc2ccccc2Cl)CC1)C1CCCCC1 | 0.2 | 0 | . | . | .
CCCc1nnc(NC(=O)CCC(=O)NC2CCCCC2)s1 | -3.1 | 6 | . | . | .
Cc1ccc2cc(CCNS(=O)(=O)c3ccc(F)cc3)c(=O)[nH]c2c1 | . | 4 | -3% | 3 | -18 | Arbovirus inh repeat=-2
CCn1cc(CCC(=O)NCCc2ccccc2)c2ccccc21 | 2.6 | 3 | . | . | .
CC(C)(C)N1C(=O)[C@H]2[C@@H](c3ccc(Br)cc3)N3C(=O)N(c4cccc(Cl)c4)C(=O)[C@@]3(C)[C@H]2C1=O | 2.4 | 4 | . | . | .
Cc1ccc(S(=O)(=O)Nc2cccc(C(=O)NCC(c3ccco3)N3CCCC3)c2)cc1F (configuration not stated) | -1.8 | 4 | . | . | .
CCC(C)NC(=O)CN1C(=O)CSc2ccc(S(=O)(=O)N3CCCC3)cc21 (configuration not stated) | -0.9 | 0 | . | . | .
Cc1ccc2c(cnn2C(=O)CCC(=O)N2CCCCC2C)c1 (configuration not stated) | 1.8 | -5 | . | . | .
CCC1=C(OC(=O)N(CC)CC)N2C(=O)OC(=NCCc3c[nH]c4ccccc34)[C@]2(C)[C@H]2C1=CC[C@H]1C(=O)N(C)C(=O)[C@H]12 | 1.4 | -7 | -4% | . | .
COC(=O)c1sc2cc(=O)n(-c3cccc(C(F)(F)F)c3)nc2c1O | -2.6 | 2 | -1% | 16 | .
CCO/C(C)=C1\N=C(c2ccc(Cl)cc2)OC1=O | 0.7 | 6 | -5% | 1 | -23
O=C(Nc1ccccc1C(=O)Nc1ccc2c(c1)OCO2)c1ccco1 | 2.5 | -5 | 22% | -9 | -1
CSCCC(NC(=O)c1cccc(C)c1)C(=O)OCC(=O)Nc1c(C)nn(-c2ccccc2)c1C (configuration not stated) | 3.9 | -7 | . | . | .
Cc1ccc(S(=O)(=O)c2ncccc2[N+](=O)[O-])cc1 | 11 | 100 | . | . | .
COc1ccc(CN(C)C2CCCCC2)cc1 | -2.1 | -3 | -6% | 1 | -3 | Arbovirus inh repeat=1
COc1ccc(NC(=O)C/C(C)=N/NC(=O)C(=O)NC2CCCCC2)c(OC)c1 | 23 | 3 | -2% | -4 | .
Cc1ccc(-c2nnc(NC(=O)Cc3ccc(F)cc3)o2)c(C)c1 | 4.5 | ? | . | . | .
CCn1nc(C(=O)NNC(=O)COc2ccc(OC)cc2)c2ccccc2c1=O | -1.4 | -3 | -4% | -6 | -23
CCOC(=O)N1CCC(NC(=O)c2ccc(OC)c(CN3CC(=O)N4CCCC4C3=O)c2)CC1 (configuration not stated) | -1.3 | -7 | -4% | -1 | 16
CC(=O)c1cccc(N2Cc3ccccc3C2=NC(=O)CCl)c1 | 29 | 8 | 1% | -1 | .
Cn1cc(C(=O)N/N=C/c2cccc(O)c2)ccc1=O | -0.3 | 1 | -1% | 0 | .
COC(=O)CCSc1cc([N+](=O)[O-])cc2c1c(C1OCCO1)nn2-c1ccccc1 | -6.1 | -2 | 3% | -5 | -20
COc1ccccc1NS(=O)(=O)/C=C/c1ccccc1 | 1.5 | 3 | 7% | -3 | -44
CC(C)(Oc1ccc(Cl)cc1)C(=O)NCc1n[nH]c(=O)c2ccccc12 | -1.4 | -3 | . | . | .
Cc1nc(C)c(C(=O)Nc2ccc(C)c(F)c2)o1 | -2.9 | 6 | 0% | -1 | 0
COc1ccc(C(=O)C(C)(C)NO)cc1 | -4.0 | 7 | 2% | 2 | 1
CCN(CC)c1ccc(/C=N\NC(N)=O)cc1 | -4.9 | 7 | -4% | -6 | -6
CC1CN(c2cc(-c3ccccc3)c3ccccc3n2)CC(C)O1 (configuration not stated) | 15 | -2 | 5% | -9 | -30
CCCc1nc([N+](=O)[O-])c(S(=O)(=O)c2ccccc2)n1CC(C)C | 9.4 | 5 | 6% | -6 | -27
CC(=O)C1=C(C)N(Cc2ccccc2)C(=O)N[C@H]1CCc1ccccc1 | -4.2 | -24 | 3% | 8 | -8
COc1ccc(OCCOCC(O)CN2CCOCC2)cc1 (configuration not stated) | -1.2 | -8 | 7% | 4 | -53
CN(C)/C=C1\C(=O)Nc2ccccc21 | 2.5 | -4 | 0% | 4 | -1
Cc1cccc(NC(=O)c2ccc(NCC3CCCO3)c([N+](=O)[O-])c2)c1 (configuration not stated) | 1.7 | 1 | -10% | -6 | -22
CN1CCN(c2ccc([N+](=O)[O-])c(Sc3ccccn3)c2)CC1 | 1.6 | 9 | -5% | . | .
CCN1C(=O)/C(=C2/C=Cc3ccccc3N2C)OC1=S | 0.3 | 2 | -3% | 5 | -20
O=C(O)CCN1C(=O)/C(=C/c2ccc(-c3nc4ccccc4s3)o2)SC1=S | -17 | . | . | 42* | -32
Cc1oc(-c2cccc(C(F)(F)F)c2)nc1CN1CCN(c2ccccn2)CC1 | 7.3 | 22 | 2% | 0 | .
CCc1ccc(NC(=O)CSc2nnc(Cc3cccn3C)n2-c2ccc(OC)cc2)cc1 | 4.2 | 5 | 6% | -2 | 4
CCOC(=O)C(=O)Nc1ccc(S(=O)(=O)N2CCOCC2)cc1OC | 0.4 | 3 | -9% | 7 | 6
CCOC(=O)c1cc(CC)sc1NC(=O)c1cc(OCC)c(OCC)c(OCC)c1 | -0.2 | 99 | 64% | 4 | 5
CCSc1nc(C)nc2sc(C)c(C)c12 | -1.3 | 1 | . | . | .
Oc1ccc(N=Cc2c(O)ccc3ccccc23)cc1 | -3.9 | 9 | -9% | . | .
COc1cccc(CN2C(=NC(=O)C3CC3)SC3CS(=O)(=O)CC32)c1 (configuration not stated) | 0.7 | 0 | . | . | .
CCCCNC(=O)CCC(=O)Nc1ccc2nc(N3CCCCC3)cc(C)c2c1 | 2.1 | -3 | -1% | 11 | .
CCOc1ccc(S(=O)(=O)n2nc(C)cc2C)cc1 | -1.0 | -6 | . | . | .
C(=C\c1ccncc1)/c1ccccc1 | 0.0 | 1 | 0% | . | .
CCN(CC)c1nc(N2CCN(C)CC2)nc2ccccc12 | -4.6 | 0 | . | . | .
CCOCc1nnc(NC(=O)COC)s1 | . | -18 | -3% | 0 | -20

Molecules shown so far that have a CF3 group, in the order listed:
SMILES | RecA intein inh | Mtb bLac sens | Mtb growth | Arbovirus inh | YopH PTP inh | others
COC(=O)c1sc2cc(=O)n(-c3cccc(C(F)(F)F)c3)nc2c1O | -2.6 | 2 | -1% | 16 | .
Cc1oc(-c2cccc(C(F)(F)F)c2)nc1CN1CCN(c2ccccn2)CC1 | 7.3 | 22 | 2% | 0 | .

(further entries)
SMILES | RecA intein inh | Mtb bLac sens | Mtb growth | Arbovirus inh | YopH PTP inh | others
O=C(CS(=O)(=O)c1ccc(F)cc1)Nc1nnc(-c2cccs2)o1 | -1.5 | -3 | . | . | .
CSc1nc(N(C)C)nc(N(C#N)CCOC(C)=O)n1 | -1.8 | -10 | -7% | 6 | .
N#CC1CN(C(c2ccccc2)c2ccccc2)C1 | -1.1 | 2 | -1% | -2 | .
O=C(CSc1nc(-c2cccs2)cc(C(F)(F)F)n1)NCCCn1ccnc1 | -1.5 | 3 | -7% | 0 | -11
C=CCNC(=S)NNC(=O)c1cccc(Br)c1 | 4.8 | 14 | -1% | -4 | -27
COc1ccc(C2=NN(C(=O)/C=C/c3ccccc3)C(c3ccccc3)C2)c(OC(C)=O)c1 (configuration not stated) | 36* | 63 | ? | -11 | -25
Cc1ccc(-c2nnn(CC(=O)N(CC(=O)NC3CCCC3)c3ccc(F)cc3)n2)o1 | -1.4 | 4 | . | . | .
NS(=O)(=O)c1ccc(NC(=O)COC(=O)c2ccc(Cl)nc2)cc1 | -6.6 | 1 | 2% | 3 | .
COc1ccccc1NC(=O)c1cn(CCC#N)nc1-c1ccc(F)cc1 | -0.9 | -1 | . | . | .
S=C(Nc1ccc(Cl)cc1)NC1CCN(Cc2ccccc2)CC1 | 1.5 | 6 | 5% | -19 | -3
CCc1ccc(C(C(=O)NCc2ccccc2)N(C(=O)c2csnn2)C2CC2)cc1 (configuration not stated) | 1.5 | 2 | . | . | .

Bioassay records from PubChem BioAssay.

Some of the compounds tested; the hit share may differ from the screen's.
